Bioassay records as filed in PubChem.
Ab BasE inh = blocks the Acinetobacter baumannii siderophore enzyme BasE. purified BasE, fluorescence polarization binding displacement. inhibition, % (test concentration not listed). 84,000 tested, 0.1% active. AID 485350;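 active means both replicates above 25% with normal brightness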;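 further: 0% = negative plate control signal and 100% = positive plate control signal; stock transfer was 100 nL into about 30 µL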
LANA-nucl inh = LANA-nucleosome interaction inhibition. FITC-LANA1-23 / chicken nucleosome fluorescence polarization; stronger effect = lower value. z-score (no concentration beside the values). 51,000 tested, 0.3% active. AID 720717;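 active means both repeat wells score below -2 in polarization z-score versus plate sample wells, excluding overly bright wells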;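 further: 100 nL library stock added to about 30 µL; numbers are from one replicate; some results filed as inactive read as strong as hits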
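test system = FITC-LANA peptide and chicken nucleosomes | amount = 240 nM purified chicken nucleosomes (480 nM peptide binding sites), final | reagent = 50 nM FITC-LANA1-23 probe | medium = TEN-BT buffer, pH 7.5 | doses = single compound addition by pin transfer, 100 nL per well | timing = 10–45 min, room temperature | detection = fluorescence polarization | repeats = duplicate plates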
An asterisk follows results filed as active; · = no result given; & = joins results of further samples. Some of the compounds tested, so the mix of outcomes need not match the whole.

SMILES	Ab BasE inh	LANA-nucl inh
O=C(COC(=O)CCc1c[nH]c(=O)[nH]1)Nc1ccc2ccccc2c1	0.3	-1
CCOC(=O)C(C(=O)Nc1cccc(C(F)(F)F)c1)C1CCCCC1 (stereo not given)	1.9	·
O=c1ccc(-c2ccc(S(=O)(=O)NCc3ccccc3)s2)n[nH]1	-0.8	·
NC(=O)CSc1nnc(C2CC2)n1CC1CCCO1 (stereo not given)	0.6	0.52
CC(C)c1ccc(NC(=O)CSc2n[nH]c(=O)n2C2CC2)cc1	-1.0	·
CCOC(=O)c1c(C)[nH]c(C)c1C(=O)CSc1nnc2oc3ccc(S(=O)(=O)N(C)C)cc3n12	2.3	·
C=CCNCc1ccc(-c2cccc(Cl)c2C)o1	·	-0.029
CC(=O)Nc1ccc(OC(=O)c2ccccc2O)cc1	-2.5	-0.12
CCCOc1ccc(C2/C(=C(/O)c3ccc(C)c(F)c3)C(=O)C(=O)N2Cc2ccco2)cc1 (stereo not given)	-0.2	-0.59
O=C1CC(CS(=O)(=O)c2ccc(C(F)(F)F)cn2)=NN1c1ccccc1	0.4	·
CN(Cc1ccccc1F)C(=O)c1cccc(S(=O)(=O)N(C)C)c1	-7.8	·
O=C(COc1cc2ccccc2cc1C(=O)N1CCOCC1)Nc1ccc2c(c1)OCCO2	-0.4	·
COc1ccc(-c2nn(C)c3sc(C(=O)O)cc23)cc1OC	1.8	-0.56
CC(=O)NC(=O)/C(C#N)=C/N1CCOCC1	2.6	-0.27
CCOC(=O)C1=C(C)Nc2ccccc2N/C1=N\S(=O)(=O)c1ccccc1	0.7	·
CCCNC(=O)c1c(O)nc2ccccn2c1=O	-0.8	0.22
COc1ccc(C2C(C(=O)NCc3ccco3)c3ccccc3C(=O)N2C)cc1 (stereo not given)	-0.4	0.27
S=C(NCCN1CCOCC1)Nc1ccc(-c2nnc3n2CCCCC3)cc1	1.0	·
COC(=O)C1(OC)COc2ccccc2O1 (stereo not given)	-0.3	0.92
CC(=O)NO	1.1	0.29&1.1
Cc1ccc(CN2CC34C=CC(O3)C(C(=O)O)C4C2=O)cc1 (stereo not given)	-1.3	0.45
Cc1cccc(NC(=O)Cn2c(=O)sc3ccccc32)c1	0.4	-1.6
CN(C)C(=O)C(Sc1nnc(-c2ccccc2F)n1C)c1ccccc1 (stereo not given)	-4.7	·
CCCSc1ncccc1C(=O)Nc1c(-c2ccccc2)noc1C	-1.1	0.49
O=C(Oc1coc(CSc2ncccn2)cc1=O)c1ccc(S(=O)(=O)N2CCCC2)cc1	-1.6	1.2
SMILES	Ab BasE inh	LANA-nucl inh
O=C(Nc1cccc(-c2noc(-c3ccccn3)n2)c1)c1ccco1	-4.0	-1.1
CCOc1cc2c(cc1OCC)C(CC(=O)O)N(C(=O)NCc1ccccc1)CC2 (stereo not given)	-0.1	-0.27
CC(N)C12CC3CC(CC(C3)C1)C2 (stereo not given)	·	-0.71&0.42
O=C(COC(=O)c1cccc(-n2cccc2)c1)NCc1ccccc1	1.2	·
CCOc1ccccc1-n1c(SCC(=O)c2ccc3c(c2)OCCO3)nc(O)cc1=O	-8.6	·
Cc1ccc(C)n1-n1cnnc1	·	-0.83
O=C(Nc1nc2ccccc2[nH]1)c1ccccc1	2.5	·
COc1ccc(-c2nc(SC(C(=O)NC(N)=O)C(C)C)n[nH]2)cc1 (stereo not given)	-3.0	·
COCc1nnc(NC(=O)C2CC(=O)N(c3ccc(C)cc3)C2)s1 (stereo not given)	-3.3	-0.92
CC1CC(C)CN(CC(=O)Nc2ccccc2C(N)=O)C1 (stereo not given)	0.8	0.18
CC(O)CN(CC(C)O)CC1CC=CCC1 (stereo not given)	11	0.71
CCCCc1cc(=O)oc2cc(OC(=O)c3ccco3)ccc12	-3.1	1.3
CCCC12CN3CC(CCC)(CN(C1)C3c1c[nH]c3ccccc13)C2=O (stereo not given)	0.8	-0.18
CN1/C(=C\C(=O)Cn2cc(S(=O)(=O)N3CCCC3)ccc2=O)C(C)(C)c2ccccc21	2.5	·
CC[C@@]12C=C(C)n3c4c(c5ccccc53)CCN(CCC1)C42 (stereo not given in full)	·	-0.58
CCOC(=O)c1oc2ccc(Br)cc2c1COC(=O)Cc1n[nH]c(=O)c2ccccc12	0.3	·
O=C1Cc2ccccc2N1	1.1	-0.95
CCNC(=S)N/N=C/c1ccc2ncccc2c1	3.0	·
C=CCNC(=O)/C(=C/c1ccccc1)c1ccccc1	1.7	0.065
Cc1c(NC(=O)c2ccccc2)c(=O)n(-c2ccccc2)n1C	1.3	·
O=C(C1=C(O)C(=O)N(CCc2ccccc2)C1c1ccncc1)c1cc2ccccc2o1 (stereo not given)	0.8	-0.34
O=C(O)COCC(=O)Nc1ccc(Oc2c(Cl)cccc2Cl)nc1	0.8	0.29
O=C1c2cccnc2C(=O)N1c1ccc(-c2nc3cc(Cl)ccc3o2)cc1	-1.4	0.27
O=C1N=c2ccccc2=C1c1[nH]c(=S)[nH]c1O	0.9	-0.15
Cc1cc(/C=N/NC(=O)c2cccnc2)c(C)n1-c1cccc(S(=O)(=O)N2CCOCC2)c1	0.1	·
SMILES	Ab BasE inh	LANA-nucl inh
O=C(NCC1CCCO1)NC12CC3CC(CC(C3)C1)C2 (stereo not given)	-1.5	0.51
CC(=O)Nc1ccc(S(=O)(=O)N(C)Cc2ccc(C)o2)cc1	-0.9	·
C(CC1CCNCC1)CC1CCNCC1	0.8	·
Cc1c(-c2cccc(NC(=O)CC(C)C)c2)nc2ncccn12	1.0	0.41
O=c1nc2n3ccccc3ncc-2s1	0.1	-0.076
CC(=O)Nc1ccc(C(=O)Nc2ccc(-c3nc4ccccc4o3)cc2)cc1	1.0	-0.96
CC(C)c1ccc(NC(=O)CN2CCC(n3nnc4ccccc43)CC2)cc1	-0.4	-0.15
CC1ON(c2ccc(Br)cc2)C(=O)NC1=O (stereo not given)	2.6	·
CCCn1c(NCc2ccccc2O)nc2ccccc21	2.0	0.38
CC(C(=O)O)c1n[nH]c(=O)c2ccccc12 (stereo not given)	1.3	-0.33
C/C(=N/NC(=O)c1ccccc1)C1C(=O)c2ccccc2C1=O	1.9	-0.85
O=C(/C=C/c1ccco1)Nc1ccc2c(c1)nc1n2CCCCC1	-5.3	·
CCn1c(CCNC(=O)c2ccc(Cl)cc2)nnc1SCc1nc2ccccc2c(=O)[nH]1	-1.9	-0.9
O=C(O)/C=C/C(=O)N1CCN(c2cccc(Cl)c2)CC1	0.4	2.4
CCCCC(C(N)=O)C(N)=O	1.9	·
O=c1c(Cl)c(N2CCCC2)cnn1-c1nc2ccccc2s1	2.7	-0.21
Cc1ccc(S(=O)(=O)c2c(C)nn(-c3ccccc3)c2OC(=O)c2ccco2)cc1	1.7	-0.4
O=C(CC1(O)C(=O)Nc2ccccc21)c1ccc2ccccc2c1 (stereo not given)	-4.3	·
COC(=O)c1cc(S(=O)(=O)N(C)c2ccc(C)c(C)c2)c[nH]1	-0.8	0.35
CC(C)c1ccc(NC2=CC(=O)CCC2)cc1	0.9	-1.6
Cc1cccn2cc(CNC(=O)c3ccco3)nc12	0.0	1.2
O=C(Nc1ccc(S(=O)(=O)NCc2ccco2)cc1)C1=NN(C2CCS(=O)(=O)C2)C(=O)CC1 (stereo not given)	1.6	·
C[N+]1(C)[C@@H]2CC(OC(=O)C(O)(c3cccs3)c3cccs3)C[C@H]1[C@@H]1O[C@@H]12 (stereo not given in full)	·	-1.2
COC(=O)C1C(=O)C2=C(CC1C)Nc1ccccc1NC2c1ccc(O)c(OC)c1 (stereo not given)	0.1	0.59
CC(=O)N(C1=NCCCCS1)c1ccccc1	-1.4	-5.1
SMILES	Ab BasE inh	LANA-nucl inh
CN1C(=O)S/C(=C/c2ccccc2OCc2ccc(C(=O)O)cc2)C1=O	2.2	·
CC(C)[C@H](NC(=O)c1ccccc1)C(=O)OCc1nnc(-c2ccccc2)o1	-0.2	·
O=C(O)CCC(=O)Nc1cc(C(F)(F)F)ccc1N1CCCC1	·	-0.11
CC12CN(C(=O)Cc3ccccc3)CC(C)(CN(C(=O)Cc3ccccc3)C1)C2=O	0.4	-1
O=C(c1cc2ccccc2oc1=O)N(Cc1cccs1)Cc1cccs1	-0.5	-0.029
CN(C)C(=N)c1n[nH]nc1SCc1ccccc1	2.6	·
C=C(C)CN=C1SC(C(=O)Nc2sc3c(c2C(=O)OC)CCC3)C(N)=C1C(N)=O (stereo not given)	1.1	·
COc1cc(OC)c(C(=O)CCCN2CCCC2)c(OC)c1	-2.2	-0.22&0.4
O=C(c1ccc(Cl)cc1)C1CCN(C(=O)N2CCOCC2)CC1	3.3	0.28
Cc1cc(C(F)(F)F)nc2c(Br)c(C(C)(C)C)nn12	-4.5	·
CCOC(=O)Nc1ccc2ncn(C)c(=O)c2c1	-0.4	1.9
CCCCN(C)C(=O)c1cn(C2CCCC2)c(=O)c2c1c1ccccc1n2C	0.8	0.0055
NC(=O)c1nnc2ccc(Cl)cc2c1N	-1.8	·
N#Cc1c(F)cccc1NCCc1ccccn1	1.5	·
O=C1c2c(O)cc(O)cc2O[C@H](c2ccc(O)c(O)c2)[C@@H]1O	·	0.098
COC(=O)CSc1nnc(-c2ccccc2)o1	2.4	·
O=C(O)C1=C(C(=O)Nc2ccc(F)c(Cl)c2)CCCC1	-2.1	0.32
CCN(CC(=O)Nc1ccc2c(c1)CCC2)CC(=O)Nc1ccc2c(c1)OCCO2	-0.4	·
O=C(Nc1ccc2oc3ccccc3c2c1)C1COc2ccccc2O1 (stereo not given)	1.3	·
CC1C2CC(CN2C(=O)Cc2c[nH]c3ccccc23)CC1(C)C (stereo not given)	-2.7	2.5
CCC(=O)Nc1cc(NC(=O)CC)cc(C(=O)O)c1	-2.1	0.032
Cc1ccc(OC(=O)CCc2c(C)nc3ncnn3c2C)cc1	1.1	-0.68
CN(C)c1ccc(C(=O)Nc2ccc(-c3nc4ccccc4o3)cc2)cc1	1.0	-0.3
CC(C)(C)C(=O)C[n+]1cccc(C(N)=O)c1	0.3	·
O=C(O)CC(NC(=O)c1ccco1)c1ccc(F)cc1 (stereo not given)	3.1	0.49
SMILES	Ab BasE inh	LANA-nucl inh
COc1ccc(C(=O)OCC(=O)NCC2CCCCC2)c(OC)c1	-2.3	·
Cc1nc2ccccc2n1CCN=Cc1c(O)[nH]c(=O)[nH]c1=O	1.3	·
CC1CCCCC1NC(=O)NC(=O)CSc1nc(N)cc(N)n1 (stereo not given)	-6.3	·
CN(CCCNCC1CC2C=CC1C2)c1ccccc1 (stereo not given)	-0.6	·
O=C(CSc1ncc(C(F)(F)F)cc1Cl)N(CC1CCCO1)C1CCS(=O)(=O)C1 (stereo not given)	-0.5	·
Cc1ccc(CC2CC(=O)N(C3CCCCC3)C2=O)cc1 (stereo not given)	0.5	0.73
CCOc1cc(C(NC(=O)c2ccco2)NC(=O)c2ccco2)ccc1OC	0.8	-0.4
NS(=O)(=O)c1ccc(CCNc2ncnc3nc[nH]c23)cc1	2.1	-0.77
CN(C)c1ccc(C(C(=O)NCC2CCCO2)N(C(=O)Cn2nnc3ccccc32)c2ccc3c(c2)OCO3)cc1 (stereo not given)	-0.1	-0.19
O=C1CCN(S(=O)(=O)c2ccc(Cl)cc2)CC1	·	-0.18
CCC(=O)c1ccc(OC)cc1OC	3.9	·
c1ccc(C(Sc2nnc(-c3ccc4c(c3)OCO4)o2)c2ccccc2)cc1	1.7	·
O=C(O)C1CNC(=O)N1C(=O)OCc1ccccc1 (stereo not given)	0.7	·
Cc1ccc(C23CC4CC(CC(C(=O)NN5CCN(CCO)CC5)(C4)C2)C3)cc1	-0.3	-0.54
c1cncc(-c2noc(C3CCCCC3)n2)c1	-1.0	0.89
Cc1cc(/C=C2/NC(=O)N(Cc3ccccc3F)C2=O)c(C)n1-c1ccc(S(N)(=O)=O)cc1	1.9	·
N#CCCN1c2ccccc2Sc2ccc(Cl)cc21	0.7	·
Cc1ccc(-c2nn(C)c(=O)c3ccccc23)cc1CNC(=O)Nc1ccccc1	0.7	·

Structures shown so far that contain a furan ring, fused or not, in the order listed:
SMILES	Ab BasE inh	LANA-nucl inh
C=CCNCc1ccc(-c2cccc(Cl)c2C)o1	·	-0.029
CCCOc1ccc(C2/C(=C(/O)c3ccc(C)c(F)c3)C(=O)C(=O)N2Cc2ccco2)cc1 (stereo not given)	-0.2	-0.59
COc1ccc(C2C(C(=O)NCc3ccco3)c3ccccc3C(=O)N2C)cc1 (stereo not given)	-0.4	0.27
O=C(Nc1cccc(-c2noc(-c3ccccn3)n2)c1)c1ccco1	-4.0	-1.1
CCCCc1cc(=O)oc2cc(OC(=O)c3ccco3)ccc12	-3.1	1.3
CCOC(=O)c1oc2ccc(Br)cc2c1COC(=O)Cc1n[nH]c(=O)c2ccccc12	0.3	·
O=C(C1=C(O)C(=O)N(CCc2ccccc2)C1c1ccncc1)c1cc2ccccc2o1 (stereo not given)	0.8	-0.34
CC(=O)Nc1ccc(S(=O)(=O)N(C)Cc2ccc(C)o2)cc1	-0.9	·
O=C(/C=C/c1ccco1)Nc1ccc2c(c1)nc1n2CCCCC1	-5.3	·
Cc1ccc(S(=O)(=O)c2c(C)nn(-c3ccccc3)c2OC(=O)c2ccco2)cc1	1.7	-0.4
Cc1cccn2cc(CNC(=O)c3ccco3)nc12	0.0	1.2
O=C(Nc1ccc(S(=O)(=O)NCc2ccco2)cc1)C1=NN(C2CCS(=O)(=O)C2)C(=O)CC1 (stereo not given)	1.6	·
O=C(Nc1ccc2oc3ccccc3c2c1)C1COc2ccccc2O1 (stereo not given)	1.3	·
O=C(O)CC(NC(=O)c1ccco1)c1ccc(F)cc1 (stereo not given)	3.1	0.49
CCOc1cc(C(NC(=O)c2ccco2)NC(=O)c2ccco2)ccc1OC	0.8	-0.4
